Screening results as filed in PubChem BioAssay.
HNF4A DNA FP: change in binding of human HNF4 alpha to DNA; P41235; HNF4a-FITC DNA binding, fluorescence polarization, 1 h; 360,000 tested, 0.3% active; activity change, % at 10 µM; in the data active = activity change above about 30%, passing the limit was not always enough;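 note: controls were the assay level and a saturating level of protein; the project sought stronger binding though the title names inhibitors; some compounds called inactive have numbers as strong as hits; positive values seem to mean higher polarization but the record does not say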
Target sequence (P41235 whole entry, looked up): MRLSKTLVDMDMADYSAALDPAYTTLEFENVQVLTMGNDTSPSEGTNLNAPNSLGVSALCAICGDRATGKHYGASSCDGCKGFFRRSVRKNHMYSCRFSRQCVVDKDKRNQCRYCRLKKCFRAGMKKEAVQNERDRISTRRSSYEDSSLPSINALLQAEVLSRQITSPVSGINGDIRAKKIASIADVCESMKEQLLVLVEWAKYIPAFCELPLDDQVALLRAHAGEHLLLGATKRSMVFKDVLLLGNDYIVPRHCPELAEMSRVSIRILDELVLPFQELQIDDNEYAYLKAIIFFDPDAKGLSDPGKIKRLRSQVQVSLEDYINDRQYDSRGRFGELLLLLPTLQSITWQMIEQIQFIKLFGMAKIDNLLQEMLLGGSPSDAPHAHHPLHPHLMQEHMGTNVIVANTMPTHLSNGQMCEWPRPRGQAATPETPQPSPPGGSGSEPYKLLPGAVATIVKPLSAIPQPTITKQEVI
ALR inh: blocks human ALR sulfhydryl oxidase activity; AID 485317; 290,000 tested, 3.8% active; inhibition, % (no concentration beside the values); purified ALR, DTT oxidation, H2O2 HRP-luminol luminescence;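 active = mean and each replicate at 75% or more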;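 note: stock transfer was 7.5 nL into about 7.5 µL; 0% = neutral wells and 100% = wells with inactivated enzyme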
Target sequence (P55789 whole entry, looked up): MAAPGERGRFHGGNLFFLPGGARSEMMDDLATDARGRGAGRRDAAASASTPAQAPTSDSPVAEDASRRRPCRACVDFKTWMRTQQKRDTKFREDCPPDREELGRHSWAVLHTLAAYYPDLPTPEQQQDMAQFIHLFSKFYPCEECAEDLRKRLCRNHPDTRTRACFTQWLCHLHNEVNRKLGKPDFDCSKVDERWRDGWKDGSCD
E coli growth: blocks Escherichia coli growth | AID 1053175 | OD600 absorbance (test concentration not listed) | 330,000 tested, 0.21% active | OD600, 23 h; hits give low values;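 active = OD600 absorbance below the run mean of sample wells minus 3.6 SD, in any replicate, cut at about 0.56 in these data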;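 note: stock transfer was 300 nL into about 60 µL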
Vif TR-FRET: HIV-1 Vif–A3G interaction blockers – biochemical, TR-FRET, GST-Vif 1-94, biotin-A3G peptide, dose response retest, primary screen (AID 1117319). TR-FRET GST-Vif / biotin-A3G peptide binding; higher % means a stronger effect; test concentration not given here; strong numbers were not always called active. inhibition, %; hits with a dose series show IC50 in µM. 260,000 tested, 0.57% active;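 active = above the screen mean plus three standard deviations and confirmed in dose response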;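 note: Vif residues 1-94 fused to GST binding biotinylated APOBEC3G peptide 110-148; 0% = full assay without inhibitor and 100% = GST in place of GST-Vif; retest series ran down from 100 µM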
AF4-AF9 inh: inhibitors of human MLL-AF4/AF9 interaction; P42568; AlphaScreen, biotin-AF4 peptide binding to FLAG-AF9; inhibition, % at 10 µM; 350,000 tested, 0.47% active;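 active = every replicate reaching a set inhibition limit, whatever the replicate mean, cut at about 25% in these data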;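 note: 0% = plate neutral control median and 100% = total signal loss; the record names both 10 and 1 µM as test concentration; the first replicate is given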
FGF22 binding: binders of recombinant human FGF22 by thermal shift. SYPRO orange fluorescence; percent of sucrose octasulfate shift, DMSO zero. AID 651658. Q9HCT0. 340,000 tested, 1.5% active. calls only at 9.99 µM;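 active = melting point raised past a set limit in the mean and every replicate; three in four hits are not shown here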
Target sequence (Q9HCT0 whole entry, looked up): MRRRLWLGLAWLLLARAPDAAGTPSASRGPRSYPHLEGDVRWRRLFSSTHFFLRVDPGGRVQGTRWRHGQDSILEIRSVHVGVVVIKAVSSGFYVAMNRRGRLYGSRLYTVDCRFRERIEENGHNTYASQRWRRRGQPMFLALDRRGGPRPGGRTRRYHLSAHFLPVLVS
Ecoli rRNA inh: selective bacterial rRNA inhibition in E. coli. E. coli WT GFP vs humanized-ribosome RFP mutants, fluorescence, 24 h; hits give low values; DMSO median 0, no signal -100. GFP signal change (wild-type ribosome), % (test concentration not listed). 350,000 tested, 1.6% active;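 active = significant combined selectivity score with lowered wild-type GFP, culture density cut under 30%, mutant RFP and density less affected; inactive = any of these conditions unmet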; note: one replicate is shown; some compounds called inactive have numbers as strong as hits
Ecoli rRNA inh OD600: second read-out of Ecoli rRNA inh, no call of its own (marks repeat the call); OD600 change, %; measured here: OD600 growth;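 optical density of the mix in the first replicate; 0 = DMSO median and -100 = no signal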
Ecoli rRNA inh RFP: second read-out of Ecoli rRNA inh, no call of its own (marks repeat the call); RFP signal change, %; measured here: RFP humanized mutant strains;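 first replicate; 0 = DMSO median and -100 = no signal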
Starred values were filed as active, the others as inactive. These rows are one share of the data. The share of hits here may be higher or lower than overall.

`COc1cccc(CNc2nc3ccc(C)cc3n3cnnc23)c1` gave HNF4A DNA FP 7.3, ALR inh -4.2, E coli growth 0.71, Vif TR-FRET -9.9%, AF4-AF9 inh -0.2, FGF22 binding inactive, Ecoli rRNA inh 11.7, Ecoli rRNA inh OD600 11.9 and Ecoli rRNA inh RFP -0.6.
Screening O=[N+]([O-])c1ccc(CN2CCCCCC2)s1 returned HNF4A DNA FP -4.8, ALR inh -19.4, E coli growth 0.684, AF4-AF9 inh 12.2, FGF22 binding inactive, Ecoli rRNA inh 0.8, Ecoli rRNA inh OD600 5.2 and Ecoli rRNA inh RFP 4.6.
`COc1ccc(-c2cc(CNC(=O)CN(C)Cc3ccccc3)on2)cc1` gave HNF4A DNA FP -0.6, ALR inh -0.9, E coli growth 0.736 and Vif TR-FRET 27.2%.
Cc1cccc(C)c1Nc1nnc(SCc2nc3ccccc3c(=O)[nH]2)s1 was read as HNF4A DNA FP 4.5, ALR inh 37.9, E coli growth 0.725 and Vif TR-FRET -2.1%.
Screening CCCn1c(N)c(C(=O)CSc2nnc(C3CC3)n2-c2ccccc2)c(=O)[nH]c1=O returned HNF4A DNA FP 1.3, ALR inh -0.3, Vif TR-FRET -2.2%, AF4-AF9 inh -1.9, FGF22 binding inactive, Ecoli rRNA inh 1.2, Ecoli rRNA inh OD600 12.9 and Ecoli rRNA inh RFP -0.7.
`Cc1ccc(S(=O)(=O)N2CCN(C(=O)C3CSC4(C)CCC(=O)N34)CC2)cc1C` (configuration not stated) gave HNF4A DNA FP -3.2, ALR inh -0.5, E coli growth 0.684, Vif TR-FRET -1.0%, AF4-AF9 inh -2.2, FGF22 binding inactive, Ecoli rRNA inh 6.2, Ecoli rRNA inh OD600 5.4 and Ecoli rRNA inh RFP -0.7.
Nc1ccc2ccccc2c1[N+](=O)[O-] was read as HNF4A DNA FP 0.0, E coli growth 0.657, Vif TR-FRET 1.4%, AF4-AF9 inh 3.8, FGF22 binding inactive, Ecoli rRNA inh -14.2, Ecoli rRNA inh OD600 -13.4 and Ecoli rRNA inh RFP 0.0.
`O=S(=O)(Nc1ccc(F)cc1)c1cccc2nsnc12` gave HNF4A DNA FP 2.9, ALR inh -6.7, E coli growth 0.61, AF4-AF9 inh 2.0, FGF22 binding inactive, Ecoli rRNA inh -14.7, Ecoli rRNA inh OD600 -27.3 and Ecoli rRNA inh RFP 0.8.
For CC(=O)c1ccc(CCCC(=O)O)cc1 the results were HNF4A DNA FP 1.9, ALR inh -8.6, E coli growth 0.677 and Vif TR-FRET 4.9%.
For COc1ccc(-c2cc(C(F)(F)F)c3c(=O)n(-c4ccccc4)[nH]c3n2)cc1 the results were HNF4A DNA FP 2.8, ALR inh 99.3*, E coli growth 0.683 and Vif TR-FRET 9.2%.
`COc1ccc(C(=O)c2c3ccc([N+](=O)[O-])cc3[n+]([O-])n2CCCC(N)=O)cc1` gave HNF4A DNA FP 4.8, ALR inh -80.6, E coli growth 0.688, AF4-AF9 inh -3.4, FGF22 binding inactive, Ecoli rRNA inh 8.0, Ecoli rRNA inh OD600 7.6 and Ecoli rRNA inh RFP -2.5.
Screening C[C@@H]1CCCCO[C@@H](CN(C)CC2CCCCC2)[C@@H](C)CN([C@@H](C)CO)C(=O)c2cc(N(C)C)ccc2O1 returned AF4-AF9 inh 20.0, FGF22 binding inactive, Ecoli rRNA inh 2.6, Ecoli rRNA inh OD600 -1.6 and Ecoli rRNA inh RFP 0.6.
`O=C(O)COc1ccccc1/C=C1\SC(=O)N(Cc2ccc(F)cc2)C1=O` gave HNF4A DNA FP -2.5, ALR inh 97.7*, E coli growth 0.686, AF4-AF9 inh 3.3, Ecoli rRNA inh -60.0, Ecoli rRNA inh OD600 -78.9 and Ecoli rRNA inh RFP -26.0.
`CS(=O)(=O)N(CC(=O)NCc1ccc2c(c1)OCO2)Cc1ccccc1` gave HNF4A DNA FP 1.8, ALR inh -6.2, E coli growth 0.652 and Vif TR-FRET 76.0%.
Screening COc1ccc(/C=C/C(=O)NCCCn2ccnc2)cc1 returned HNF4A DNA FP 1.2, ALR inh -5.4, E coli growth 0.723, Vif TR-FRET -0.9%, AF4-AF9 inh 0.3 and FGF22 binding inactive.
For CCOC(=O)C1=CN(Cc2cccc(I)c2)S(=O)(=O)N(C)C1C (configuration not stated) the results were HNF4A DNA FP -3.7, E coli growth 0.693, Vif TR-FRET 0.6%, AF4-AF9 inh -1.6, FGF22 binding inactive, Ecoli rRNA inh -23.5, Ecoli rRNA inh OD600 -25.1 and Ecoli rRNA inh RFP -0.2.
`COc1ccc(S(=O)(=O)N(C)C[C@H]2Oc3c(NS(C)(=O)=O)cccc3C(=O)N([C@H](C)CO)C[C@@H]2C)cc1` gave AF4-AF9 inh -3.7, FGF22 binding inactive, Ecoli rRNA inh -2.2, Ecoli rRNA inh OD600 6.6 and Ecoli rRNA inh RFP 4.0.
Screening S=c1[nH]nc(CSCc2ccccc2Cl)n1C1CCCCC1 returned HNF4A DNA FP -0.2, E coli growth 0.64, Vif TR-FRET -5.0%, AF4-AF9 inh -3.1, FGF22 binding inactive, Ecoli rRNA inh -44.3, Ecoli rRNA inh OD600 -73.3 and Ecoli rRNA inh RFP -8.5.
Screening O=C(CN(Cc1ccco1)S(=O)(=O)c1ccccc1)N/N=C/c1ccccc1C(=O)O returned HNF4A DNA FP 0.5, ALR inh -1.3, AF4-AF9 inh 0.4, Ecoli rRNA inh 7.6, Ecoli rRNA inh OD600 9.2 and Ecoli rRNA inh RFP -0.9.
`COCCNC(=S)NC(=O)c1ccc(C(C)(C)C)cc1` gave HNF4A DNA FP 1.0, ALR inh -4.4, E coli growth 0.674, Vif TR-FRET 4.3%, AF4-AF9 inh 0.5, FGF22 binding inactive, Ecoli rRNA inh -2.7, Ecoli rRNA inh OD600 -5.1 and Ecoli rRNA inh RFP -5.3.
For COCC#Cc1ccc2c(c1)O[C@@H](CN(C)S(=O)(=O)c1ccc(C)cc1)[C@H](C)CN([C@@H](C)CO)S2(=O)=O the results were AF4-AF9 inh 2.0, FGF22 binding inactive, Ecoli rRNA inh -2.3, Ecoli rRNA inh OD600 -10.1 and Ecoli rRNA inh RFP 3.0.
Screening CC1CCCCC1NC(=O)CCn1c(=O)oc2ccccc21 (configuration not stated) returned HNF4A DNA FP -1.3, ALR inh -10.9, E coli growth 0.663, Vif TR-FRET 1.1%, AF4-AF9 inh -3.0, FGF22 binding inactive, Ecoli rRNA inh 12.2, Ecoli rRNA inh OD600 -3.5 and Ecoli rRNA inh RFP 1.1.
COc1ccc(NC(=O)C(=O)NCCC2CCCCN2S(=O)(=O)c2ccccc2)cc1 (configuration not stated) was read as HNF4A DNA FP -1.7, ALR inh 0.4, E coli growth 0.681, Vif TR-FRET -1.4%, AF4-AF9 inh -2.2, Ecoli rRNA inh 1.2, Ecoli rRNA inh OD600 3.5 and Ecoli rRNA inh RFP -1.8.
Cc1c(Cl)cccc1NC(=O)N1CCCC1 was read as HNF4A DNA FP 1.4, ALR inh -11.4, E coli growth 0.649, Vif TR-FRET 1.8%, AF4-AF9 inh -0.3, FGF22 binding inactive, Ecoli rRNA inh 4.0, Ecoli rRNA inh OD600 8.3 and Ecoli rRNA inh RFP -1.2.
Screening O=C(/C=C/c1ccccc1[N+](=O)[O-])NCc1ccccc1Cl returned HNF4A DNA FP 3.7, ALR inh 0.4, E coli growth 0.666, Vif TR-FRET 0.2%, AF4-AF9 inh -9.6, FGF22 binding inactive, Ecoli rRNA inh 2.9, Ecoli rRNA inh OD600 0.0 and Ecoli rRNA inh RFP 1.1.
`COc1ccc(NC(=O)Nc2cccc3c2O[C@H](CN(C)C(=O)NC(C)C)[C@H](C)CN([C@@H](C)CO)C3=O)cc1` gave AF4-AF9 inh -2.2, FGF22 binding inactive, Ecoli rRNA inh 0.4, Ecoli rRNA inh OD600 0.6 and Ecoli rRNA inh RFP -0.6.
`O=c1[nH]c(CSc2nnc(Nc3ccccc3)s2)nc2ccccc12` gave HNF4A DNA FP -1.5, ALR inh 2.3, E coli growth 0.698, Vif TR-FRET -10.8%, AF4-AF9 inh -3.7, FGF22 binding inactive, Ecoli rRNA inh 22.4, Ecoli rRNA inh OD600 15.1 and Ecoli rRNA inh RFP 4.8.
Screening O=C(O)c1cc2ccccc2n1-c1ccccc1 returned HNF4A DNA FP 0.0, ALR inh -2.6, E coli growth 0.703 and Vif TR-FRET 28.1%.
For C[C@H]1CN([C@@H](C)CO)C(=O)c2cc(NC(=O)Cc3ccccc3)ccc2O[C@@H]1CN(C)Cc1ccccc1 the results were AF4-AF9 inh -2.7, FGF22 binding inactive, Ecoli rRNA inh 1.3, Ecoli rRNA inh OD600 2.2 and Ecoli rRNA inh RFP -2.1.
For COc1ccc(Cn2cnc([N+](=O)[O-])c2)cc1[N+](=O)[O-] the results were HNF4A DNA FP -0.1, E coli growth 0.725, Vif TR-FRET -0.2%, AF4-AF9 inh 2.6, FGF22 binding inactive, Ecoli rRNA inh 1.1, Ecoli rRNA inh OD600 -1.2 and Ecoli rRNA inh RFP -2.1.
For CN1CC(=O)N(CC(=O)Nc2ccc(F)cc2)c2ccccc2C1=O the results were HNF4A DNA FP -1.9, ALR inh -7.0, E coli growth 0.705, Vif TR-FRET 6.4%, Ecoli rRNA inh -2.7, Ecoli rRNA inh OD600 10.5 and Ecoli rRNA inh RFP -2.2.
For CCc1ccc(-c2cc(C)no2)cc1S(=O)(=O)N1CCN(c2ccc(OC)cc2)CC1 the results were HNF4A DNA FP -0.7, ALR inh -9.9, E coli growth 0.736, AF4-AF9 inh 4.9, FGF22 binding inactive, Ecoli rRNA inh 0.8, Ecoli rRNA inh OD600 -6.3 and Ecoli rRNA inh RFP 0.5.
CCS(=O)(=O)N1CCCCN2[C@H](C1)[C@@H](c1ccc(-c3ccccc3C)cc1)[C@@H]2CO was read as AF4-AF9 inh -6.5, FGF22 binding inactive, Ecoli rRNA inh 3.5, Ecoli rRNA inh OD600 -43.3 and Ecoli rRNA inh RFP 8.6.
COc1cccc(N2CCN(CC(=O)NC(C)c3ccccc3)CC2)c1 (configuration not stated) was read as HNF4A DNA FP 0.2, ALR inh 81.2*, E coli growth 0.689, AF4-AF9 inh -12.2, FGF22 binding inactive, Ecoli rRNA inh 6.5, Ecoli rRNA inh OD600 6.0 and Ecoli rRNA inh RFP 2.2.
Cc1ccc(CNc2ncnc3cc(Cl)ccc23)cc1 was read as HNF4A DNA FP 2.5, E coli growth 0.619, Vif TR-FRET -19.6%, AF4-AF9 inh -0.4, FGF22 binding inactive, Ecoli rRNA inh -6.2, Ecoli rRNA inh OD600 -1.2 and Ecoli rRNA inh RFP -1.6.
For O=C(c1cccs1)N1N=C(c2ccccc2)CC1c1ccc(O)cc1 (configuration not stated) the results were HNF4A DNA FP 1.6, ALR inh 0.3, E coli growth 0.719 and Vif TR-FRET -7.9%.
For C[C@@H]1CN([C@@H](C)CO)S(=O)(=O)c2ccc(C#CC3CCCCC3)cc2O[C@@H]1CN(C)C the results were AF4-AF9 inh 10.3, FGF22 binding inactive, Ecoli rRNA inh 7.4, Ecoli rRNA inh OD600 -0.9 and Ecoli rRNA inh RFP 18.7.

Among those listed so far, these contain a thiophene ring, fused or not.
Screening O=[N+]([O-])c1ccc(CN2CCCCCC2)s1 returned HNF4A DNA FP -4.8, ALR inh -19.4, E coli growth 0.684, AF4-AF9 inh 12.2, FGF22 binding inactive, Ecoli rRNA inh 0.8, Ecoli rRNA inh OD600 5.2 and Ecoli rRNA inh RFP 4.6.
For O=C(c1cccs1)N1N=C(c2ccccc2)CC1c1ccc(O)cc1 (configuration not stated) the results were HNF4A DNA FP 1.6, ALR inh 0.3, E coli growth 0.719 and Vif TR-FRET -7.9%.
